Source: PubChem BioAssay
2A StopGo: FMDV 2A StopGo reporter, luciferase signal; Potency, µM (highest dose often 57.9 µM), without a hit: top-dose signal change, negative = less light; human cells with a luciferase reporter of 2A StopGo recoding; control for the full effect not named in the record; AID 1159524; hit rate 1.2% among 410,000; active = well fitted falling curve with a large enough effect; inconclusive = small, poorly fitted or top-dose-only effect; inactive = no such curve, though single readings can be large or run the other way; tested in HEK293T cells; further: on the % scale 0 is the no-effect control and ±100 the full control effect; nearly all actives have a fitted effect of over 45% in size; luciferase light after 4 h
Cruzain inh noDet: cruzain (T. cruzi) inhibition without detergent. P25779. purified cruzain, Z-FR-AMC fluorescence, no detergent. Potency, µM, inactives show max response, negative = inhibition, hits mostly inhibitors. hit rate 2.3% among 200,000. AID 1476;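 further: plate controls were enzyme without inhibitor for no effect and buffer without enzyme for full effect; nearly all actives have a fitted effect of over 40% in size; top concentration of the series not given in the record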
Target sequence (P25779 123-467 limits assumed): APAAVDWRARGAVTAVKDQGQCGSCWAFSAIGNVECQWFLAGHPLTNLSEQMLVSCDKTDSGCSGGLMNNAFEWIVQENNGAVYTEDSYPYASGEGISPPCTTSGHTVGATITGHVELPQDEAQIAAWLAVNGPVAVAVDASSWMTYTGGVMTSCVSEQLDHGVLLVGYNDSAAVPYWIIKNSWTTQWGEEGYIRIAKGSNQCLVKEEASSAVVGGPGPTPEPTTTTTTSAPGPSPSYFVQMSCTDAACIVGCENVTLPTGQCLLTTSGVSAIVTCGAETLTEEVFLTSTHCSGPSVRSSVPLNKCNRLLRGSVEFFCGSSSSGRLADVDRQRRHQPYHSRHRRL
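Purified cruzain at 1.5 nM, pre-incubated 15 min with compound at room temperature in 100 mM sodium acetate pH 5.5, 5 mM DTT, 0.00005% Triton X-100. Reaction started with 2 uM Z-FR-AMC; AMC fluorescence increase over 60 s gives rate.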
NS1 inh: inhibitors of influenza NS1 protein function | Potency, µM (series often up to 46.1 µM), for inactives: at the top dose activity, positive = more growth | hit rate 0.4% among 270,000 | AID 2326 | S. cerevisiae slowed by influenza A NS1, growth recovery by OD600; active means well fitted rising curve with a large enough effect; inconclusive means small, poorly fitted or top-dose-only effect; inactive means no such curve, though single readings can be large or run the other way; further: nearly all actives have a fitted effect of over 50% in size
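S. cerevisiae expressing influenza A NS1, grown in glucose, washed, then diluted 1:100 into pH 6.0 -URA galactose medium with 23 nl compound. Growth recovery read as OD600; NS1-free strain serves as control.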
MARV entry inh: blocks Marburg virus binding to or entry into cells; hit rate 1.8% among 300,000; Marburg virus pseudotyped entry inhibition, cell reporter; control for the full effect not named in the record; about a third of the inactives were read at about 46 µM; Potency, µM (highest dose often 37.8 µM), without a hit: top-dose activity change, negative = inhibition, actives largely listed as inhibitors; active = well fitted inhibition curve with a large enough effect; inconclusive = small, poorly fitted or top-dose-only effect, or effect the other way; inactive = flat fitted curve, though single readings scatter; tested in HEK293 cells; about a fifth of its hits are not listed in these tables; further: on the % scale 0 is the no-effect control and ±100 the full control effect; luciferase read-out
Lassa entry inh: Lassa virus entry inhibition; Lassa virus pseudotype entry inhibition, cell reporter; control for the full effect not named in the record; Potency, µM (doses to about 37.9 µM), for inactives: at the highest dose activity change, negative = inhibition, most hits filed as inhibitors; hit rate 1.2% among 300,000; AID 540256; active means well fitted inhibition curve with a large enough effect; inconclusive means small, poorly fitted or top-dose-only effect, or effect the other way; inactive means flat fitted curve, though single readings scatter; tested in HEK293 cells; further: on the % scale 0 is the no-effect control and ±100 the full control effect; nearly all actives have a fitted effect of over 50% in size; luciferase read-out
SARS PLpro yeast: SARS-CoV PLP inhibition in yeast; S. cerevisiae expressing SARS-CoV PLpro, growth rescue; control for the full effect not named in the record; Potency, µM (highest dose often 32.9 µM), inactives show top-dose activity, positive = growth rescue; hit rate 0.19% among 330,000; AID 485353; active means well fitted rising curve with a large enough effect; inconclusive means small, poorly fitted or top-dose-only effect; inactive means no such curve, though single readings can be large or run the other way; further: 0% is about no effect; nearly all actives have a fitted effect of over 55% in size; growth read by luminescence after 48 h
Cruzain inh Det: inhibitors of Trypanosoma cruzi cruzain with detergent. purified cruzain, Z-FR-AMC fluorescence, 0.01% Triton. hit rate 0.43% among 200,000. AID 1478. Potency, µM, for the others: max response, negative = inhibition, hits mostly inhibitors. P25779;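 further: plate controls were neutral wells for no effect and buffer without enzyme for full effect; nearly all actives have a fitted effect of over 40% in size; top concentration of the series not given in the record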
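15 min RT preincubation of 1.5 nM cruzain with compound, then 2 uM Z-FR-AMC added; kinetic AMC fluorescence, 60 s delta. Triton X-100 0.01%, pH 5.5.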
RE007 growth inh: less growth of the S. pombe RE007 Vpr strain. hit rate 0.21% among 360,000. S. pombe RE007 Vpr strain, BacTiter-Glo ATP luminescence, 24 h; control for the full effect not named in the record. Potency, µM (titrated, usually from 92.2 µM), inactives show at the top dose activity change, negative = less growth; active = well fitted falling curve with a large enough effect; inconclusive = small, poorly fitted or top-dose-only effect; inactive = no such curve, though single readings can be large or run the other way;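 further: on the % scale 0 is the no-effect control and ±100 the full control effect; nearly all actives have a fitted effect of over 50% in size; the assay follows cell death caused by Vpr and the record does not say whether a fall means rescue or toxicity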
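Fission yeast RE007 carrying one integrated HIV-1 vpr copy, seeded at OD 0.01 in PMG+AL medium with 23 nL pinned compound. Grown 24 h at 30 degrees; viability read by BacTiter-Glo luminescence after 5 min.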
* marks the source's active call; other numbers are inactive results; ? = inconclusive; . = no result given; & = joins results of further samples; [ ] = another dose, or the depositor's remark. Unless noted, the call rests on the fitted dose curve; in most records, active means well fitted curve in the direction sought with a large enough effect; inconclusive means small, poorly fitted or top-dose-only effect, or another doubt; inactive means no such curve, though single readings can be large; an effect the other way counts as inactive or inconclusive. Potency means the concentration at half of the fitted maximal effect.

SMILES | 2A StopGo | Cruzain inh noDet | NS1 inh | MARV entry inh | Lassa entry inh | SARS PLpro yeast | Cruzain inh Det | RE007 growth inh
CCOc1ccc(CNC(=O)C2Cc3ccccc3N2C(=O)CC)cc1OC (centres undefined) | 7% | 8% | . | . | -10%[46.1 µM] | . | 1.8% | .
COc1cc2nc(/C=C/c3cc(OC)c(OC)c(OC)c3)sc2cc1SC | -19% | ? | 5% | 7.1µM* | ? | -2% | -4.2% | 1%
O=C(COC(=O)CCc1nc2ccccc2s1)Nc1ncc(Cl)cc1Cl | -5% | -8% | -18% | -13% | ? | 0% | -5.6% | -13%
COc1cccc(OCCn2cc(C(C)=O)c3ccccc32)c1 | ? | . | -33% | ? | -2% | -4% | . | 3%
CCCCCCCc1c(O)nc(SCCN(C)C)[nH]c1=O | -6% | . | 29% | -19%[46.1 µM] | 10% | 2% | . | -4%
Cc1ccc(N2C(=O)NC(=O)/C(=C/c3ccc(OC(=O)c4cccs4)cc3)C2=O)cc1 | 0% | 12% | -57% | ? | -3% | 3% | -1.0% | -28%
O=C(CNC(=O)c1ccccc1F)N/N=C/c1cccnc1 | 30% | . | -8% | . | . | 4% | . | 4%
CCOC(=O)c1n[nH]n(-c2cc(Cl)cc(Cl)c2)c1=O | 7% | . | 0% | 17% | 7% | 1% | . | 1%
Cc1cccc(C)c1NC(=O)C1(N2C(=O)CC2c2ccccc2)CCCCC1 (centres undefined) | -17% | 8% | 0% | ? | -15%[46.1 µM] | 5% | -2.3% | 8%
COc1ccc(C(=O)OCC[N+]2(C)CCOCC2)cc1 | -1% | . | . | 11%[46.1 µM] | 14%[46.1 µM] | -4% | . | -17%
Oc1ccccc1CNn1cnnc1 | -8% | 14% | 16% | 5% | 6% | -4% | 2.7% | -6%
O=C(COC(=O)c1ccc(Cl)cc1)NCC1CCCCC1 | -5% | . | . | -1% | 7% | -26% | . | 4%
Cc1ccc(N(CC(=O)NN=C2CCN(C)CC2)S(=O)(=O)c2ccc(C)cc2)cc1 | -3% | . | . | 0%[46.1 µM] | 0% | 2% | . | 3%
Cc1ccc(Cn2c(C)c(CNC3CCCCC3)c(C(=O)O)c2C)cc1 | -29% | 3% | . | 3%[46.1 µM] | ? | . | -3.1% | .
COc1ccc(N2C(=O)CC(Sc3nc(C)cc(C)n3)C2=O)cc1OC (centres undefined) | -16% | . | 10% | . | . | -7% | . | 2%
CN(C(=O)COC(=O)c1nc(Cl)ccc1Cl)c1ccccc1 | 8% | . | -10% | 5% | 5% | -1% | . | -3%
COc1ccc(CNC(=O)Cn2nc(C(F)(F)F)cc2C)cc1 | 14% | . | 0% | . | . | 1% | . | -3%
CC(C)(C)OC(=O)N1CCC(c2c(C(=O)Nc3ccc4c(c3)OCCO4)cnn2-c2ccc(F)cc2F)CC1 | ? | -6% | . | . | -27%[46.1 µM] | . | -8.7% | .
COc1ccc(C)cc1NC(=O)c1c([N+](=O)[O-])cnn1C | -15% | . | -8% | -9% | 5% | 6% | . | 3%
Cc1cc(=O)oc2cc(NC(=O)c3ccccc3Cl)ccc12 | 67%[activator] | . | 2% | -13%[46.1 µM] | ? | -2% | . | -2%
O=C(Nc1cc(Cl)cc(Cl)c1)c1ccc(F)c(S(=O)(=O)NC2CCCC2)c1 | -9% | 0% | . | . | -27%[46.1 µM] | . | 0.4% | .
O=C(CN(CC(=O)N1CCOCC1)S(=O)(=O)c1ccc(Br)s1)N1CCOCC1 | 20% | . | 0% | 4%&4% | -4% | . | . | 3%
COc1cccc(OCC(=O)NNC(=O)c2cnccn2)c1 | -8% | 10% | 6% | -2% | 6% | 16% | 4.0% | 0%
CN(CCC#N)C(=O)COC(=O)c1cc(Cl)cc(Cl)c1N | -24% | . | . | 13% | ? | -1% | . | 33%
CC(=O)C1=C(O)C(=O)N(c2ccc(Br)cn2)C1c1ccccc1F (centres undefined) | 1% | -6% | 4% | ? | 20% | -3% | -4.8% | 7%
O=C1C=C(NCc2ccc(Cl)c(Cl)c2)CC1 | -5% | 3% | 0% | -17% | 2% | 4% | -0.6% | -2%
CSCCC(=O)N(C)CC1CCN(CCc2cccc(C(F)(F)F)c2)CC1 | -8% | . | 7% | . | . | 0% | . | -10%
COc1ccc(N2CCN(C(=O)CSc3c4c(nc5ccc(Cl)cc35)CCCC4)CC2)cc1 | ? | 6% | . | -12%[46.1 µM] | ? | . | -10% | .
N#C/C(=C(/O)Cc1cccc2ccccc12)c1nc2ccccc2s1 | -22% | 13µM* | 3% | -25% | 2% | -8% | -4.0% | 0%
C=CCNCc1cc(=O)n2c(-c3ccccc3)csc2n1 | -8% | . | ? | -14%[46.1 µM] | 4%[46.1 µM] | 5% | . | -4%
Cc1cc(N2CCCC2)ccc1NC(=O)COc1cccc(C(F)(F)F)c1 | 4% | . | 9% | . | . | 0% | . | -14%
CN(CC(=O)Nc1cccc(F)c1)C(=O)c1cc(-c2cccs2)nn1-c1ccccc1 | ? | . | . | -19% | 4% | 2% | . | 7%
Cc1ccc2c(c1)N(C(=O)CCC(=O)N1CCN(c3ccccn3)CC1)CC(C)O2 (centres undefined) | -8% | . | -26% | . | . | 3% | . | -15%
O=C(CCCNS(=O)(=O)c1ccc(Br)cc1)N1CC[C@@]2(O)CCCC[C@H]2C1 | ? | 17% | -26% | 1%[46.1 µM] | -10% | -3% | 1.7% | 20%
CC1CCCN(S(=O)(=O)c2cnc[nH]2)C1 (centres undefined) | -9% | . | 5% | . | . | -5% | . | -7%
Cc1ccc(-c2csc(N(Cc3ccccc3)C(=O)COc3ccccc3)n2)cc1 | -8% | 7.9µM* | 3% | -15% | 14% | 2% | 5.9% | -20%
c1ccc(Cn2nnnc2C(c2ccccn2)N2CCN(c3ccccc3)CC2)cc1 (centres undefined) | -27% | -5% | -14% | -22% | ? | 5% | 4.7% | -1%
C/C(Nc1ccc(F)cc1)=C(/C#N)C(N)=O | -8% | -13% | -14% | -2% | 1% | -2% | 2.8% | 4%
O=[N+]([O-])c1cccc(-c2nc(-c3ccccn3)no2)c1 | 28% | . | -3% | . | . | 4% | . | -25%
CC(C)(C)C1C/C(=C/c2ccco2)C(=O)/C(=C/c2ccco2)C1 (centres undefined) | -17% | 23% | -23% | ? | ? | -23% | ? | 4%
CCS(=O)(=O)c1nc(NC(C)=O)n[nH]1 | -17% | -18% | -4% | ? | 0% | 14% | 2.0% | 3%
Cc1cc2c3c(c1C)C1(C(=O)N3C(C)(C)CC2C)C(C#N)=C(N)Oc2cc(O)ccc21 (centres undefined) | . | 29% | -12% | ? | ? | 10% | -7.5% | 8%
Cc1ccc(CNC(=O)c2ccc3c(c2)N(Cc2ccccc2Cl)C(=O)CS3)cc1 | -28% | 12% | . | -26%[46.1 µM] | 1%[46.1 µM] | . | -1.5% | .
CN1CCN(Cc2nc3ccccc3c(=O)[nH]2)CC1 | -6% | 3% | -3% | 3% | 4% | -2% | 3.8% | 5%
CCOc1cccc(NC(=O)Cc2cccs2)c1 | 31%[activator] | -2% | -5% | ? | 10% | 2% | -1.2% | -9%
CCc1ccc2nc(NC(=O)CN3C(=O)NC4(CCCC4)C3=O)sc2c1 | 14% | . | . | ? | 26%[46.1 µM] | 1% | . | -14%
O=C(O)CCc1ccc(-c2ccccc2)n1NC(=O)c1ccco1 | -9% | -4% | 4% | 19% | 11% | 0% | 7.6% | -10%
COc1cc([N+](=O)[O-])cc2sc(NC(=O)C(C)(C)C)nc12 | -7% | . | 2% | -1%[46.1 µM] | 2%[46.1 µM] | -2% | . | 3%
O=C(CSc1nc2cc3ccccc3cc2[nH]1)Nc1cccc(C(F)(F)F)c1 | 4% | ? | . | 12%[46.1 µM] | ? | . | -3.4% | .
CCCCn1c(N)c(N(CC(C)C)C(=O)CN(C)S(=O)(=O)c2ccc(C)cc2)c(=O)[nH]c1=O | -12% | . | . | 9% | ? | 1% | . | -1%
Continuation:
SMILES | 2A StopGo | Cruzain inh noDet | NS1 inh | MARV entry inh | Lassa entry inh | SARS PLpro yeast | Cruzain inh Det | RE007 growth inh
COc1cccc(-c2nnc3sc(-c4ccc(Cl)cc4)nn23)c1 | . | -3% | 1% | . | . | -1% | -0.2% | .
COc1cccc(CNC(=O)CN(C)S(=O)(=O)c2cccc3cccnc23)c1 | -3% | . | 0% | . | . | -1% | . | 7%
COCCCNC(=S)N1CCN(c2nc(-c3cccc(OC)c3)cs2)CC1 | ? | . | 2% | . | . | 0% | . | -20%
CNc1nc(-c2c(C)[nH]c3ccc(OC)cc23)cs1 | -10% | . | 11% | ? | 0%[46.1 µM] | -2% | . | -7%
COc1cc(/C=C2/SC(=S)N(CC3CCCO3)C2=O)ccc1O (centres undefined) | 17% | 10% | -23% | ? | ? | -26% | -12% | -7%
CCCCn1c(N)c(N(CC(C)C)C(=O)c2ccc(OCC3CCCO3)cc2)c(=O)[nH]c1=O (centres undefined) | -5% | . | . | 2% | 11% | 5% | . | -14%
O=C(Oc1ccc(-c2cnc3ccccc3n2)cc1)c1ccco1 | 17% | -17% | 6% | ? | -4% | -4% | -14% | -16%
Cc1cc(C)n(-c2nc3c(c(=O)[nH]c(=O)n3C)n2Cc2ccc(F)cc2)n1 | 2% | 1% | 3% | 9%[46.1 µM] | -9% | 3% | 5.9% | 13%
CCCN(CCC)C(=O)C1CC(=O)OC12CCOC(C)(C)C2 (centres undefined) | 20% | -7% | 8% | ? | 11% | 6% | -1.4% | 6%
C/C(=N\OCC(=O)O)c1ccc(Cl)cc1 | -7% | . | 2% | . | . | 0% | . | -2%
COc1ccc(CCC(=O)Nc2cccc(S(=O)(=O)N3CCCCCC3)c2)cc1 | -29% | . | . | ? | ? | -3% | . | 4%
COC(=O)c1c(NC(=O)c2ccccc2)sc(C(N)=O)c1C | 7% | . | 0% | -8%[46.1 µM] | ? | 1% | . | -26%
COc1ccc2nc(/N=C(\N)NC(=O)C(C)(C)C)nc(C)c2c1 | 0% | ? | 6% | 17%&17%[46.1 µM] | 0% | 4% | -11% | -11%
Cc1cc2nc(-c3ccc(Cl)cc3)cc(C(F)(F)F)n2n1 | ? | -8% | . | . | 1%[46.1 µM] | . | 2.9% | .
